Screening results (PubChem)
Vaccinia Venus – vaccinia inhibition (Venus reporter); Vaccinia virus Venus reporter expression, fluorescence; Potency, µM (titrated, usually from 36.5 µM), without a hit: at the top dose activity change, negative = inhibition, actives largely listed as inhibitors; actives 0.46% (n = 330,000); AID 720580; active means well fitted inhibition curve with a large enough effect; inconclusive means small, poorly fitted or top-dose-only effect; inactive means no such curve, though single readings can be large or run the other way; tested in A549 cells; also: nearly all actives have a fitted effect of over 30% in size; inactives centre near -10
Vaccinia mCherry – vaccinia inhibition (mCherry reporter); Vaccinia virus mCherry reporter infection, fluorescence; about a quarter of the inactives have no number; Potency, µM (doses to about 36.5 µM), inactives show at the highest dose activity change, negative = inhibition, usual class: inhibitors; actives 0.63% (n = 310,000); active = well fitted inhibition curve with a large enough effect; inconclusive = small, poorly fitted or top-dose-only effect; inactive = no such curve, though single readings can be large or run the other way; tested in A549 cells; also: nearly all actives have a fitted effect of over 35% in size; inactives centre near -10
* marks the source's active call; other numbers are inactive results; i = inactive; ? = inconclusive; nt = no result given; [ ] = remark or other dose. % is scaled to controls: 0 for no effect and ±100 for the full control effect; potency is read from the fitted curve at half-maximal effect.

The line under a structure holds: Vaccinia Venus | Vaccinia mCherry
- CCOC(=O)CNC(=O)CSc1nnc(-c2ccc(OC)cc2)n1CC
→ -4.2% | -7.3%
- COc1ccc(C2C(C(=O)Nc3ccc(Cl)cc3)=C(C)Nc3nc(SCc4cccc(C)c4)nn32)cc1OC (centres undefined)
→ -1.5% | 6.9%
- COC(=O)CCCCCCCCC(O)CN(C)C (centres undefined)
→ -3.2% | -18.6%
- CCCCNC(=O)c1cc2c(=O)n(CC)c3ccccc3c2s1
→ -2.2% | i
- COc1ccc(-n2c3c(cc(C(=O)Nc4ccc(C)cc4)c2=O)C(=O)CCC3)cc1
→ -5.6% | nt
- CC(/C=C/c1ccc2c(c1)OCO2)=N/NC(=O)COc1ccc(C)cc1
→ 3.9% | -4.9%
- CC1=C(C(=O)Nc2ccccc2)C(c2cccc(Cl)c2)n2nc(SCC(=O)c3ccc(C)cc3)nc2N1 (centres undefined)
→ -4.5% | -9.4%
- COc1cc(C(=O)CSc2nncn2C)cc(OC)c1OC
→ 6.7% | nt
- CC(=O)c1ccc(NC(=O)CN2C(=O)/C(=C/C=C/c3ccccc3)SC2=S)cc1
→ -8.4% | -7.6%
- COc1cccc(-c2nc3ccc(C(=O)N4CCCC(O)C4)cc3o2)c1 (centres undefined)
→ -14.3% | -11.5%
- COc1ccc(N2CCN(C(=O)c3ccc(CS(=O)Cc4ccc(Cl)cc4)o3)CC2)cc1 (centres undefined)
→ -12.7% | ?
- COC(=O)c1cc2c(-c3ccccc3)cc3ccccn3c-2c1C(=O)OC
→ 12.1% | nt
- COc1ccc(CNC(=O)c2cccc3c2C(=O)N(Cc2cccnc2)C3)cc1
→ 24.7% | 16.1%
- CCOc1ccccc1CNC(=O)c1cc2c(=O)n(Cc3ccco3)ccc2nc1C
→ -16.3% | -13.9%
- CCN(CC)CCCN(Cc1cc2cc3c(cc2[nH]c1=O)OCO3)C(=S)NCc1ccco1
→ -6.0% | -7.9%
- COCC(C)n1c(COc2ccccc2F)nnc1SCC(=O)Nc1oc(C)c2c(C)n[nH]c(=O)c12 (centres undefined)
→ -10.8% | i
- CC1CCCCC1NC(=O)c1ccc(-n2cncn2)c([N+](=O)[O-])c1 (centres undefined)
→ -22.8% | -4.0%
- Cc1cc(C=NCCCO)c(C)n1-c1cc(Cl)ccc1Cl
→ -5.3% | -2.7%
- COc1ccc(OC)c(NC(=O)C2CCCNC2=O)c1 (centres undefined)
→ -9.2% | -20.6%
- O=C(COC(=O)c1ccc([N+](=O)[O-])s1)NCc1ccc(F)cc1
→ -3.5% | -10.3%
- O=C(NNC(=S)NCc1ccccc1)c1cccc([N+](=O)[O-])c1
→ -8.4% | i
- Clc1ccc(-c2nn3cnnc3s2)c(Cl)c1
→ -8.3% | -17.4%
- Nc1nc(-c2ccccc2)ns1
→ -1.4% | i
- Cc1cc(-c2ccccc2)nc(SCc2ccc(C(=O)O)o2)n1
→ -7.0% | nt
- CC(=O)C(Sc1ccc2nnc(-c3ccc(F)cc3)n2n1)C(C)=O
→ -5.5% | 0.8%
- O=C(CN1CCN(C(=O)C2CCCO2)CC1)Nc1c(Cl)cccc1Cl (centres undefined)
→ -8.7% | i
- Cc1cc(Cl)ccc1NC(=S)N1CCOCC1
→ 0.8% | -14.9%
- Nc1nc(N)c2c(OCc3ccc(C(F)(F)F)cc3)cccc2n1
→ 10µM* | 10µM*
- O=C(Oc1cc(Cl)cc(Cl)c1)c1cnc2n(c1=O)CCS2
→ -9.7% | i
- CC(C)(C)c1ccc(C2(C)NC(=O)N(CC(=O)c3ccc[nH]3)C2=O)cc1 (centres undefined)
→ -6.5% | -14.2%
- CNC(=O)CCc1nc(-c2ccc(C(C)(C)C)cc2)no1
→ -26.2% | -2.6%
- Cc1noc(C)c1COc1cccc(C(=O)OC(C)C(=O)Nc2ccc3c(c2)OCO3)c1 (centres undefined)
→ -22.9% | -9.1%
- COC(=O)Cn1c(N)[n+](Cc2ccccc2)c2ccccc21
→ -13.8% | i
- CCCN1C(=O)c2ccc(C(=O)NC3CCCCC3)cc2C1=O
→ -15.3% | -11.0%
- Fc1ccc(CNCCc2ccccc2)cc1
→ -20.5% | -14.0%
- CCN(C(=O)CSc1nc2n[nH]c(C)c2c(=N)n1-c1cccc(OC)c1)c1cccc(C)c1
→ ? | ?
- COC(=O)Nc1nnc(COc2ccccc2)s1
→ -13.9% | i
- Cc1cc(C)n(-c2ccc(F)cc2)c(=O)c1C(=O)O
→ -12.6% | -14.9%
- O=C(O)c1cc2ccc3ccccc3c2oc1=O
→ 7.4% | nt
- CCN1CCN(c2ccc(NC(=O)CC3OC(=O)c4ccccc43)cc2C)CC1 (centres undefined)
→ -17.7% | i
- c1ccc2c(Nc3nnc(-c4ccncc4)s3)cccc2c1
→ -10.1% | -21.9%
- CCOc1cc(/C=N\NC(=O)Cc2ccccc2)ccc1OCC(=O)Nc1ccc(C)c(C)c1
→ -2.8% | -8.5%
- CCN(CC)CCN1C(=O)c2ccccc2NC1c1ccc(N(C)C)cc1 (centres undefined)
→ -12.6% | nt
- COc1ccc(S(=O)(=O)Nc2ccccc2OC)cc1N=Nc1c(O)[nH]c(=S)[nH]c1=O
→ -11.4% | -12.3%
- COc1ccc(S(=O)(=O)NC2CC(C)(C)NC(C)(C)C2)cc1C(C)C
→ -20.4% | -11.6%
- Cc1ccc([N+](=O)[O-])cc1-c1ccc(/C=N/NC(=O)c2cc3c(ccc4ccccc43)o2)o1
→ -6.0% | nt
- C=CCn1c(N)cc(=O)nc1SC(CC)C(=O)Nc1ccc(C(C)=O)cc1 (centres undefined)
→ -2.6% | -4.0%
- O=S(=O)(c1ccc(C2CCCCC2)cc1)N1CCN(c2ccc(Cl)c(Cl)c2)CC1
→ 5.8% | 1.8%
- CCCCOc1ccc(/C=C/C(=O)OCC(=O)c2c(N)n(C)c(=O)n(C)c2=O)cc1OCC
→ -0.8% | 1.9%
- CCOc1ccccc1NC(=O)C1CCCN1S(=O)(=O)c1ccc2nc(-c3ccccc3)[nH]c2c1 (centres undefined)
→ -21.8% | -8.3%
- O=C(O)Cn1ncc2c1-c1ccoc1CC2
→ 6.1% | 8.5%
- CCOC(=O)N1CCC(NC(=O)Cn2ncc3c2-c2cc(C)ccc2OC3)CC1
→ -2.1% | 47.1%[activator]
- COc1ccc(Nc2nc(Nc3ccc(OC)cc3)nc(SC3=NCCS3)n2)cc1
→ ? | -19.6%
- CCCCCCCC/C=C\CCCCCCCC(=O)NCCc1ccc(O)c(O)c1
→ -25.6% | -17.1%
- O=C1NCCC12C(=O)Nc1ccccc12 (centres undefined)
→ 0.5% | -5.0%
- CCCCCCCCN1C(=O)[C@H](CC(=O)NCCCC)C[C@@]2(C(=O)OCC)CCCC=C12
→ -23.6% | -2.0%
- O=C(Cc1n[nH]c(=O)c2ccccc12)OCc1c(Cl)cccc1Cl
→ 20.1% | ?
- COC(=O)C1=C(c2cccc(OCc3ccccc3)c2)C[C@@H]2CC[C@H]1N2C(=O)NCc1ccc(OC)cc1
→ ? | -23.5%
- CCOC(=O)Cn1c(Br)nc2c1c(=O)[nH]c(=O)n2C
→ -12.4% | -4.3%
- CCOC(=O)C1CCN(C(=O)Cn2cnc3sc(C)c(S(=O)(=O)N4CCOCC4)c3c2=O)CC1
→ 1.1% | i

Other records
The line under a structure holds: Vaccinia Venus | Vaccinia mCherry
- COC(=O)Cn1c(=NC(=O)c2cc(OC)c(OC)c(OC)c2)sc2cc(OC)ccc21
→ -16.7% | i
- CC1=CC2=NC(=O)/C(=C\c3cc(C)n(-c4ccccc4)c3C)C(=N)N2O1
→ 6.5% | -14.1%
- COc1ccc(CNC(=O)Cn2cnc3c(NCc4ccccc4)ncnc32)cc1
→ -24.0% | ?
- Cc1ccc(N2CC(C(=O)NC(C)CCc3ccccc3)CC2=O)cc1 (centres undefined)
→ -12.3% | -2.6%
- CCOC(=O)C1CCN(C(=O)COc2ccc(Br)cc2C)CC1
→ 4.3% | -0.6%
- CCC(C)[C@H](NC(=O)NCc1cccs1)C(=O)OC (some centres undefined)
→ -11.5% | -14.5%
- O=S(=O)(c1ccc(NC(=S)NN=C(Cc2ccccc2)Cc2ccccc2)cc1)N1CCOCC1
→ -16.6% | -27.2%
- O=[N+]([O-])c1ccc(N=Nc2ccc(O)cc2O)cc1
→ ? | ?
- CCC(=O)NNc1ncnc2c1cnn2C
→ -5.1% | i
- N=C(N)c1ccc(N)cc1
→ -17.0% | -13.7%
- C/C(=N/Nc1ncc(C(F)(F)F)cc1Cl)c1ccncc1
→ 7.3% | -8.2%
- COc1ccc(Br)cc1C(=O)NC(=S)Nc1ccc2[nH]c(=O)[nH]c2c1
→ -1.0% | -11.7%
- C=CCN(c1ccccc1)S(=O)(=O)c1cccc(C(=O)Nc2cccc(C)n2)c1
→ -29.2% | -25.0%
- Cc1cccc2nc(CSc3nncn3-c3ccccc3)cn12
→ -9.2% | nt
- COc1cc(NC(=O)Cn2cnc3c(SC)nc(N)nc32)cc(OC)c1OC
→ -14.7% | i
- COc1ccc(NC(=O)C2CCN(c3nc(C)nc4c3CCC4)CC2)cc1
→ ? | ?
- CN(C)S(=O)(=O)c1ccc(C(=O)Nc2ccc3nc(N4CCOCC4)sc3c2)cc1
→ -26.1% | -18.9%
- CCCS(=O)(=O)NC(=O)C1(C)CCCN(C(=O)c2ccc(C(F)(F)F)cc2)C1 (centres undefined)
→ 7.5% | 12.1%
- CCn1cc(C(=O)NCc2cccnc2)c(=O)c2cc(F)c(N3CCN(C(=O)c4ccco4)CC3)cc21
→ -29.7% | nt
- COc1cc(/C=C2\N=C(c3ccccc3)NNC2=O)cc(OC)c1OC
→ -24.7% | -20.7%
- O=C(C=Cc1ccccc1)N1CCCCC1
→ -7.8% | i
- COC(=O)CC1COc2ccccc2N1S(=O)(=O)c1ccc(OC)cc1 (centres undefined)
→ -25.4% | ?
- Cc1cccn2c(=O)c(/C=N/O)c(NCc3ccccc3)nc12
→ -16.2% | -24.5%
- COc1ccc(S(=O)(=O)N(C(=O)c2ccncc2)c2ccc(OC(=O)c3ccncc3)cc2)cc1
→ -11.2% | ?
- CS(=O)(=O)N(CC(=O)NCc1ccco1)c1cc(C(F)(F)F)ccc1Cl
→ 0.0% | -6.1%
- COC(=O)c1sccc1NC(=O)CCC1CCCC1
→ -0.4% | -5.2%
- Cc1cc(N2C(=O)C3CC=CCC3C2=O)cc(C)c1Br (centres undefined)
→ -23.5% | nt
- Cc1c(OC(C)C(=O)NCC2CCC(C(=O)O)CC2)ccc2c(-c3ccccc3)cc(=O)oc12 (centres undefined)
→ 67.7%[activator] | 74.8%[activator]
- Cc1ccc(C2(c3ccc(C)cc3)NC(=O)N(Cc3c(C)noc3C)C2=O)cc1
→ ? | nt
- O=C(CCN1C(=O)c2ccccc2C1=O)C1=NN[C@@H]2C(=O)N(c3ccc(F)cc3)C(=O)[C@H]12
→ 4.2% | -7.9%
- Cc1ccc(CNC(=O)Cn2cnc3c(NCc4ccccc4)ncnc32)o1
→ -17.2% | i
- Cc1ccsc1C(=O)NNC(=O)c1cccc(S(=O)(=O)N2CCCC2)c1
→ 0.5% | i
- Cc1csc(NC(=O)NCC2CCCC(CNC(=O)Nc3nc(C)cs3)C2)n1 (centres undefined)
→ -7.1% | -7.6%
- O=C(O)C1CCCCN1C(=O)c1ccc(S(=O)(=O)N2CCCCCC2)cc1 (centres undefined)
→ -10.1% | -10.3%
- CCCC(=O)N1CCC1(C)C(=O)NS(=O)(=O)c1ccc(C(C)(C)C)cc1 (centres undefined)
→ 0.0% | 9.9%
- Cc1cc(C)cc(C(=O)NC2CC(C)(C)NC(C)(C)C2)c1
→ -13.1% | -14.1%
- COc1cc(/C(C)=N\NC(=O)CSc2nc3ccccc3n2C)ccc1O
→ -21.6% | ?
- NC(=O)Cn1cc(C(=O)c2cccs2)c2ccccc21
→ -14.6% | nt
- CC(Oc1ccccc1)c1ccnc2nc(N3CCOCC3)nn12 (centres undefined)
→ -21.2% | -23.1%
- CCCNC(=O)c1cccc(Br)c1
→ -9.9% | -4.0%
- O=c1nc2ccccc2c2n1CC(CN1CCN(c3ccc(F)cc3)CC1)N2 (centres undefined)
→ -19.4% | nt
- Cc1cc(C)cc(OCC(O)CN2CC(C)OC(C)C2)c1 (centres undefined)
→ -3.9% | -12.8%
- CCOC(=O)N(C)c1c(CC)nc2c(OCc3ccccc3C(=O)OC)cccn12
→ -5.4% | 2.4%
- CCOc1ccccc1C(=O)N1CCCCC1CCN1CCOCC1 (centres undefined)
→ -7.8% | -4.8%
- CCCCCCCCCc1nc2sc3c(c2c(=O)n1NC(=O)c1ccc([N+](=O)[O-])cc1)CC(C)(C)OC3
→ -22.9% | -1.9%
- COc1cc(NC(=O)CSc2nnc3c(n2)[nH]c2ccc(S(=O)(=O)NC(C)C)cc23)cc(OC)c1OC
→ -4.6% | -23.8%
- CN(C)CCCn1c(N)c(C#N)c2nc3ccccc3nc21
→ 10.6% | -5.7%
- C[C@H](CO)N1C[C@H](C)[C@@H](CN(C)C(=O)Oc2ccc3ccccc3c2)OCc2cnnn2CCCC1=O
→ -19.8% | i
- COc1ccc(-c2n[nH]c(C)c2-c2ccc(Cl)cc2)c(O)c1
→ ? | nt
- Cn1c2ccccc2c2cc(/C=N/NC(=O)c3cc(O)cc(O)c3)ccc21
→ -13.6% | i
- Nc1cccc(/C=C2\C=Cc3ccccc32)c1
→ -12.1% | -12.9%
- C=C(C)C1CC=C(C)/C(=N/NC(=O)COc2ccccc2Cl)C1 (centres undefined)
→ -2.5% | -13.3%

Single entries from above.
CCCCCCCCCc1nc2sc3c(c2c(=O)n1NC(=O)c1ccc([N+](=O)[O-])cc1)CC(C)(C)OC3 in Vaccinia mCherry shows -1.9%
CCOc1ccccc1C(=O)N1CCCCC1CCN1CCOCC1 (centres undefined) in Vaccinia mCherry shows -4.8%

No enrichment for hits; any-hit rate near 0.88%.
